# Cruzain noTriton: cruzain (T. cruzi) inhibition without detergent; P25779; purified cruzain, Z-FR-AMC fluorescence, no detergent; Potency, µM, inactives show max response, negative = inhibition, actives largely listed as inhibitors; 2.3% of 200,000 active;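 further: plate controls were enzyme without inhibitor for no effect and buffer without enzyme for full effect; nearly all actives have a fitted effect of over 40% in size; top concentration of the series not given in the record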
# Target sequence (P25779 123-467 limits assumed): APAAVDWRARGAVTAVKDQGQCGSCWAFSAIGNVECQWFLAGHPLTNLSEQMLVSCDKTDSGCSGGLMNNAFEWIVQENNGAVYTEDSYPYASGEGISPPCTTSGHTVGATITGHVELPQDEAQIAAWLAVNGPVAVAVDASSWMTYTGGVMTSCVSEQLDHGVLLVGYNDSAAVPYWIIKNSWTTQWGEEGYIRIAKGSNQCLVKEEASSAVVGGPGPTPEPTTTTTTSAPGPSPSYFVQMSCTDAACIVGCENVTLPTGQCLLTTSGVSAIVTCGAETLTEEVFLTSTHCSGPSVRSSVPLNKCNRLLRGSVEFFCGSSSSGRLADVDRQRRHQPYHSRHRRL
#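 Purified cruzain at 1.5 nM, pre-incubated 15 min with compound at room temperature in 100 mM sodium acetate pH 5.5, 5 mM DTT, 0.00005% Triton X-100. Reaction started with 2 uM Z-FR-AMC; AMC fluorescence increase over 60 s gives rate.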
# StopGo reporter: lowers the luciferase signal of an FMDV 2A StopGo reporter; AID 1159524; Potency, µM (highest dose often 57.9 µM), for the others: top-dose signal change, negative = less light; human cells with a luciferase reporter of 2A StopGo recoding; control for the full effect not named in the record; 1.2% of 410,000 active; active = well fitted falling curve with a large enough effect; inconclusive = small, poorly fitted or top-dose-only effect; inactive = no such curve, though single readings can be large or run the other way; tested in HEK293T cells; further: on the % scale 0 is the no-effect control and ±100 the full control effect; nearly all actives have a fitted effect of over 45% in size; luciferase light after 4 h
# MARV entry inh: blocks Marburg virus binding to or entry into cells | Marburg virus pseudotyped entry inhibition, cell reporter; control for the full effect not named in the record; about a third of the inactives were read at about 46 µM | Potency, µM (series often up to 37.8 µM), for the others: at the top dose activity change, negative = inhibition, usual class: inhibitors | 1.8% of 300,000 active | AID 540276; active = well fitted inhibition curve with a large enough effect; inconclusive = small, poorly fitted or top-dose-only effect, or effect the other way; inactive = flat fitted curve, though single readings scatter; tested in HEK293 cells; about a fifth of its hits are not listed in these tables; further: on the % scale 0 is the no-effect control and ±100 the full control effect; luciferase read-out
# LASV entry inh: Lassa virus entry inhibition; Lassa virus pseudotype entry inhibition, cell reporter; control for the full effect not named in the record; Potency, µM (top dose mostly 37.9 µM), without a hit: at the top dose activity change, negative = inhibition, hits mostly inhibitors; 1.2% of 300,000 active; AID 540256; active means well fitted inhibition curve with a large enough effect; inconclusive means small, poorly fitted or top-dose-only effect, or effect the other way; inactive means flat fitted curve, though single readings scatter; tested in HEK293 cells; further: on the % scale 0 is the no-effect control and ±100 the full control effect; nearly all actives have a fitted effect of over 50% in size; luciferase read-out
# Cruzain inh Det: inhibitors of Trypanosoma cruzi cruzain with detergent | P25779 | purified cruzain, Z-FR-AMC fluorescence, 0.01% Triton | Potency, µM, without a hit: max response, negative = inhibition, actives largely listed as inhibitors | 0.43% of 200,000 active;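 further: plate controls were neutral wells for no effect and buffer without enzyme for full effect; nearly all actives have a fitted effect of over 40% in size; top concentration of the series not given in the record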
#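 Read-out: AMC fluorescence (360 nm excitation, 450 nm emission), four reads over 2 min, first-to-third difference used. Conditions: cruzain 1.5 nM, Z-FR-AMC 2 uM, pH 5.5 acetate, 5 mM DTT, 0.01% Triton X-100.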
# SARS PLP yeast: inhibitors of SARS-CoV papain-like protease in yeast | S. cerevisiae expressing SARS-CoV PLpro, growth rescue; control for the full effect not named in the record | Potency, µM (top dose mostly 32.9 µM), inactives show top-dose activity, positive = growth rescue | 0.19% of 330,000 active; active means well fitted rising curve with a large enough effect; inconclusive means small, poorly fitted or top-dose-only effect; inactive means no such curve, though single readings can be large or run the other way; further: 0% is about no effect; nearly all actives have a fitted effect of over 55% in size; growth read by luminescence after 48 h
# RE007 growth inh: less growth of the S. pombe RE007 Vpr strain | 0.21% of 360,000 active | Potency, µM (doses to about 92.2 µM), for the others: at the highest dose activity change, negative = less growth | S. pombe RE007 Vpr strain, BacTiter-Glo ATP luminescence, 24 h; control for the full effect not named in the record | AID 651644; active = well fitted falling curve with a large enough effect; inconclusive = small, poorly fitted or top-dose-only effect; inactive = no such curve, though single readings can be large or run the other way;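 further: on the % scale 0 is the no-effect control and ±100 the full control effect; nearly all actives have a fitted effect of over 50% in size; the assay follows cell death caused by Vpr and the record does not say whether a fall means rescue or toxicity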
#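 Fission yeast strain RE007, carrying one chromosomally integrated HIV-1 vpr copy, was seeded at OD 0.01 in PMG+AL medium with 23 nL pinned compound. After 24 h at 30 °C and 99% humidity, viability was read by BacTiter-Glo luminescence.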
# NS1 inh: inhibitors of influenza NS1 protein function; S. cerevisiae slowed by influenza A NS1, growth recovery by OD600; Potency, µM (top dose mostly 46.1 µM), without a hit: at the highest dose activity, positive = more growth; 0.4% of 270,000 active; active means well fitted rising curve with a large enough effect; inconclusive means small, poorly fitted or top-dose-only effect; inactive means no such curve, though single readings can be large or run the other way; further: nearly all actives have a fitted effect of over 50% in size
#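 A cell-based growth assay was used: compounds that relieve NS1-induced slow growth of budding yeast raise OD600. Assay medium was yeast nitrogen base with ammonium sulphate and -URA supplement, pH 6.0, with 2% galactose.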
# Active calls of the source: *; ? = inconclusive; · = no result given; & = joins results of further samples; [ ] = another dose, or the depositor's remark. Unless noted, the call rests on the fitted dose curve; in most records, active means well fitted curve in the direction sought with a large enough effect; inconclusive means small, poorly fitted or top-dose-only effect, or another doubt; inactive means no such curve, though single readings can be large; an effect the other way counts as inactive or inconclusive. Potency means the concentration at half of the fitted maximal effect.
# Value order: Cruzain noTriton, StopGo reporter, MARV entry inh, LASV entry inh, Cruzain inh Det, SARS PLP yeast, RE007 growth inh, NS1 inh
1. O=S(=O)(Cc1ccccc1)CS(=O)(=O)Cc1ccccc1
→ ·, 5%, -17%[46.1 µM], 28%[46.1 µM], ·, ·, -7%, ·
2. CCCCCCCCNC(=O)c1cccnc1SCC(=O)Nc1ccc(OC)cc1OC
→ 12%, -13%, ?, 9%, -1.5%, -9%, 5%, 5%
3. COc1ccc(N(CC(=O)Nc2ccc3c(c2)OCCO3)S(=O)(=O)c2cccc(C)c2)cc1
→ ·, -7%, ?, ?, ·, 5%, 1%, ·
4. CCOC(=O)c1ccc(NC(=O)c2nc[nH]c2C(=O)N2CCN(c3ccccc3)CC2)cc1
→ ·, -21%, ·, ·, ·, -1%, -3%, 5%
5. Cc1nc(C(=O)NC2CCOCC2)sc1C1(C)CC(c2cccc([N+](=O)[O-])c2)=NO1 (stereo not given)
→ ·, ?, ·, ·, ·, 1%, -5%, -5%
6. CS(=O)Cc1cc(Oc2ccccc2)nc(-c2ccncc2)n1 (stereo not given)
→ ·, -14%, 16%[46.1 µM], 18%, ·, 0%, 12%, ·
7. O=c1[nH]c(N/N=C/c2ccccc2Br)nnc1-c1ccccc1
→ 13µM*, 6%, ?, 9%, -11%, -12%, 27%, 2%
8. COc1ccc2[nH]c3c(=O)n(Cc4ccc(C(=O)N5CCCC5)cc4)c(=S)[nH]c3c2c1
→ ·, 7%, ?, -19%, ·, 2%, -6%, ·
9. NS(=O)(=O)c1ccc(CCNC(=O)CCS(=O)(=O)c2ccc(Br)cc2)cc1
→ ·, -9%, ·, ·, ·, 0%, -15%, 2%
10. O=C(NCc1nc2ccccc2[nH]1)C1=C[C@H](C2CC2)C[C@H](OCCCCO)O1
→ ·, -4%, ·, ·, ·, 0%, 5%, 0%
11. Cc1ccc(/C=C/S(=O)(=O)NCC(=O)OCC(=O)Nc2c(F)cccc2F)cc1
→ ·, -6%, -24%, 8%, ·, 2%, 9%, ·
12. O=C(Oc1ccccc1N1C(=O)C2CC=CCC2C1=O)c1ccc(Br)cc1 (stereo not given)
→ -6%, -8%, -6%, 35%, -4.9%, -2%, 6%, 5%
13. O=C1c2cccnc2C(=O)N1c1cccc([N+](=O)[O-])c1
→ ·, -14%, 3%[46.1 µM], 29%[46.1 µM], ·, 0%, -6%, 6%
14. COc1ccccc1/C=N\N=C(\N)c1ccccn1
→ -4%, 52%[activator], ?, -8%, -5.8%, -12%, 1%, 17%
15. CCCSCCCNC(=O)CC1Oc2ccccc2NC1=O (stereo not given)
→ -1%, -1%, ·, ·, -0.6%, 0%, -5%, 0%
16. CCCc1cc(=O)oc2cc(OCc3ccc(C(=O)O)o3)ccc12
→ ·, 67%[activator], 8%, 8%, ·, 2%, 5%, 3%
17. Cc1ccc2nc(-c3ccncc3)cc(C(=O)Nc3ccc(F)cc3C)c2c1
→ ·, -19%, ?, ?, ·, -10%, 6%, 5%
18. Cc1c(CC(=O)O)c(=O)oc2cc(OCc3ccc(F)cc3Cl)ccc12
→ ·, 19%, ·, ·, ·, -1%, 8%, 9%
19. CC(NC(=O)C(NS(=O)(=O)c1cccc2nsnc12)C(C)C)c1ccccc1 (stereo not given)
→ ·, -22%, ·, ·, ·, 12%, 2%, -3%
20. Cc1ccc(C(=O)CSc2nc(-c3ccccc3)nc3c2CCCC3)cc1
→ 0%, -3%, ?, 6%[46.1 µM], -0.6%, ·, ·, ·

# As entered above:
# compound 3 | RE007 growth inh: 1%
# compound 10 | NS1 inh: 0%
# compound 1 | LASV entry inh: 28%[46.1 µM]
# compound 8 | SARS PLP yeast: 2%

# Back to the main list; the 2 compounds before the break are reprinted first.
# Value order: Cruzain noTriton, StopGo reporter, MARV entry inh, LASV entry inh, Cruzain inh Det, SARS PLP yeast, RE007 growth inh, NS1 inh
19. CC(NC(=O)C(NS(=O)(=O)c1cccc2nsnc12)C(C)C)c1ccccc1 (stereo not given)
→ ·, -22%, ·, ·, ·, 12%, 2%, -3%
20. Cc1ccc(C(=O)CSc2nc(-c3ccccc3)nc3c2CCCC3)cc1
→ 0%, -3%, ?, 6%[46.1 µM], -0.6%, ·, ·, ·
21. COc1ccc(C(=O)/C=C/Nc2cc(C)on2)c(OC)c1
→ -14%, 57%[activator], 17%, 2%, -7.2%, -13%, ?, -38%
22. CSc1sc(C(=O)NNC(=O)c2ccc(Cl)cc2)c2c1C=CCC2
→ ·, -14%, ?, -5%[46.1 µM], ·, 0%, -24%, 9%
23. C/C(=N\NC(=O)CC(C)C)c1ccc(Cl)c(Cl)c1
→ -3%, 22%, ?, -26%, -1.0%, -3%, 7%, 3%
24. CC(C)N1CCN(Cc2cc3c(cc2Cl)OCO3)CC1CCO (stereo not given)
→ ·, -2%, 12%, -1%, ·, 1%, -21%, 3%
25. CS(=O)(=O)Cc1cc(N2CCCC2)nc(-c2ccccc2)n1
→ ·, -10%, -4%[46.1 µM], 0%, ·, -1%, -6%, ·
26. Cc1cc(=O)[nH]c(-c2ccccc2)n1
→ -8%, -3%, 5%, 9%, 5.1%, 4%, 0%, 15%
27. CC(=O)NCCOc1nc(N(C)C)nc(N2CCOCC2)n1
→ 1%, -4%, 1%, 1%, 3.2%, 0%, 3%, -2%
28. C=CCn1c(SCc2ccccc2F)nc2cc(C(=O)O)ccc2c1=O
→ ·, 8%, 10%[46.1 µM], -16%, ·, -1%, -1%, 9%
29. Cn1nccc1C(=O)NCc1ccc2c(c1)CCN2C(=O)c1ccccc1
→ 10%, -1%, ·, ?, 1.9%, ·, ·, ·
30. CC(C)CC1NC2(C(=O)N(C)c3ccccc32)C2C(=O)N(C(C)C)C(=O)C12 (stereo not given)
→ 6%, -10%, ·, ·, -2.2%, 1%, 10%, -7%
31. CCCCCn1c(=O)c(C(=O)NCc2ccco2)c(O)c2ccccc21
→ ·, -19%, -5%[46.1 µM], -12%, ·, -1%, -4%, -7%
32. O=C(NC(=S)Nc1ccccc1[N+](=O)[O-])c1ccccc1
→ ·, 37%[activator], ?, 19%, ·, -2%, -16%, 10%
33. O=C(NCc1ccccc1)c1ccc2c(=O)[nH]c3c(C(=O)NCC4CCCO4)sc(=S)n3c2c1 (stereo not given)
→ ·, 8%, ?, 12%, ·, -1%, -10%, ·
34. Cc1ccccc1CSc1n[nH]c(NS(=O)(=O)c2ccccc2)n1
→ -3%, -26%, -1%, 3%, -1.7%, -2%, -10%, 4%
35. CCCCNC(=O)CC1N=C2c3ccccc3N=C(SCC(=O)Nc3ccc(OC)cc3)N2C1=O (stereo not given)
→ -16%, -3%, 13%&13%, 6%, -0.1%, 6%, -7%, -3%

# Entries listed so far containing a COOH group:
# Value order: Cruzain noTriton, StopGo reporter, MARV entry inh, LASV entry inh, Cruzain inh Det, SARS PLP yeast, RE007 growth inh, NS1 inh
16. CCCc1cc(=O)oc2cc(OCc3ccc(C(=O)O)o3)ccc12
→ ·, 67%[activator], 8%, 8%, ·, 2%, 5%, 3%
18. Cc1c(CC(=O)O)c(=O)oc2cc(OCc3ccc(F)cc3Cl)ccc12
→ ·, 19%, ·, ·, ·, -1%, 8%, 9%
28. C=CCn1c(SCc2ccccc2F)nc2cc(C(=O)O)ccc2c1=O
→ ·, 8%, 10%[46.1 µM], -16%, ·, -1%, -1%, 9%

# In the list so far, 5 contain an aryl thioether with sulfur outside any ring:
# Value order: Cruzain noTriton, StopGo reporter, MARV entry inh, LASV entry inh, Cruzain inh Det, SARS PLP yeast, RE007 growth inh, NS1 inh
2. CCCCCCCCNC(=O)c1cccnc1SCC(=O)Nc1ccc(OC)cc1OC
→ 12%, -13%, ?, 9%, -1.5%, -9%, 5%, 5%
20. Cc1ccc(C(=O)CSc2nc(-c3ccccc3)nc3c2CCCC3)cc1
→ 0%, -3%, ?, 6%[46.1 µM], -0.6%, ·, ·, ·
22. CSc1sc(C(=O)NNC(=O)c2ccc(Cl)cc2)c2c1C=CCC2
→ ·, -14%, ?, -5%[46.1 µM], ·, 0%, -24%, 9%
28. C=CCn1c(SCc2ccccc2F)nc2cc(C(=O)O)ccc2c1=O
→ ·, 8%, 10%[46.1 µM], -16%, ·, -1%, -1%, 9%
34. Cc1ccccc1CSc1n[nH]c(NS(=O)(=O)c2ccccc2)n1
→ -3%, -26%, -1%, 3%, -1.7%, -2%, -10%, 4%

# Source: PubChem BioAssay
